High-throughput results from PubChem.
StopGo reporter: lowers the luciferase signal of an FMDV 2A StopGo reporter | human cells with a luciferase reporter of 2A StopGo recoding; control for the full effect not named in the record | Potency, µM (top dose mostly 57.9 µM), without a hit: top-dose signal change, negative = less light | 410,000 tested, 1.2% active | AID 1159524; active = well fitted falling curve with a large enough effect; inconclusive = small, poorly fitted or top-dose-only effect; inactive = no such curve, though single readings can be large or run the other way; tested in HEK293T cells; further: on the % scale 0 is the no-effect control and ±100 the full control effect; nearly all actives have a fitted effect of over 45% in size; luciferase light after 4 h
SARS PLP yeast: SARS-CoV PLP inhibition in yeast | Potency, µM (titrated, usually from 32.9 µM), without a hit: at the top dose activity, positive = growth rescue | S. cerevisiae expressing SARS-CoV PLpro, growth rescue; control for the full effect not named in the record | AID 485353 | 330,000 tested, 0.19% active; active means well fitted rising curve with a large enough effect; inconclusive means small, poorly fitted or top-dose-only effect; inactive means no such curve, though single readings can be large or run the other way; further: 0% is about no effect; nearly all actives have a fitted effect of over 55% in size; growth read by luminescence after 48 h
NS1 inh: blocks influenza NS1 protein function | AID 2326 | Potency, µM (series often up to 46.1 µM), inactives show at the highest dose activity, positive = more growth | 270,000 tested, 0.4% active | S. cerevisiae slowed by influenza A NS1, growth recovery by OD600; active means well fitted rising curve with a large enough effect; inconclusive means small, poorly fitted or top-dose-only effect; inactive means no such curve, though single readings can be large or run the other way; further: nearly all actives have a fitted effect of over 50% in size
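Recovery from NS1-induced slow growth read by OD600 in budding yeast switched to galactose assay medium (pH 6.0, -URA) at 1:100 dilution. Compound 23 nl per well; the matching strain lacking NS1 serves as control.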
Cruzain Triton: cruzain (T. cruzi) inhibition with detergent; purified cruzain, Z-FR-AMC fluorescence, 0.01% Triton; P25779; AID 1478; 200,000 tested, 0.43% active; Potency, µM, for the others: max response, negative = inhibition, usual class: inhibitors;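 further: plate controls were neutral wells for no effect and buffer without enzyme for full effect; nearly all actives have a fitted effect of over 40% in size; top concentration of the series not given in the record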
Target sequence (P25779 123-467 limits assumed): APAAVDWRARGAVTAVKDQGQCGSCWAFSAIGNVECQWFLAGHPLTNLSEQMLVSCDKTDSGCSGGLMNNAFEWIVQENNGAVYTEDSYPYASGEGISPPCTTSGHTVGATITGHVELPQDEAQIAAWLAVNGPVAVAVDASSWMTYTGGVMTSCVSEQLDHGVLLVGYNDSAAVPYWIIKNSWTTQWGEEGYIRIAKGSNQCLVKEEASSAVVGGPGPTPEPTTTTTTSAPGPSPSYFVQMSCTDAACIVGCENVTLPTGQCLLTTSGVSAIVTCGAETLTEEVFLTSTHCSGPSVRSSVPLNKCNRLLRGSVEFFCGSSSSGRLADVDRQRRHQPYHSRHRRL
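Compounds were screened in titration against cruzain (1.5 nM) with 0.01% Triton X-100 to counter colloidal aggregation. Activity was the AMC fluorescence increase over 60 s after adding 2 uM Z-FR-AMC at pH 5.5.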
Cruzain noTriton: cruzain (T. cruzi) inhibition without detergent; Potency, µM, without a hit: max response, negative = inhibition, actives largely listed as inhibitors; AID 1476; purified cruzain, Z-FR-AMC fluorescence, no detergent; P25779; 200,000 tested, 2.3% active;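 further: plate controls were enzyme without inhibitor for no effect and buffer without enzyme for full effect; nearly all actives have a fitted effect of over 40% in size; top concentration of the series not given in the record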
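Purified cruzain at 1.5 nM, pre-incubated 15 min with compound at room temperature in 100 mM sodium acetate pH 5.5, 5 mM DTT, 0.00005% Triton X-100. Reaction started with 2 uM Z-FR-AMC; AMC fluorescence increase over 60 s gives rate.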
RE007 growth inh: less growth of the S. pombe RE007 Vpr strain | S. pombe RE007 Vpr strain, BacTiter-Glo ATP luminescence, 24 h; control for the full effect not named in the record | Potency, µM (highest dose often 92.2 µM), for the others: at the highest dose activity change, negative = less growth | 360,000 tested, 0.21% active; active = well fitted falling curve with a large enough effect; inconclusive = small, poorly fitted or top-dose-only effect; inactive = no such curve, though single readings can be large or run the other way;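 further: on the % scale 0 is the no-effect control and ±100 the full control effect; nearly all actives have a fitted effect of over 50% in size; the assay follows cell death caused by Vpr and the record does not say whether a fall means rescue or toxicity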
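Fission yeast RE007 carrying one integrated HIV-1 vpr copy, seeded at OD 0.01 in PMG+AL medium with 23 nL pinned compound. Grown 24 h at 30 degrees; viability read by BacTiter-Glo luminescence after 5 min.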
Marburg entry inh: blocks Marburg virus binding to or entry into cells. AID 540276. Marburg virus pseudotyped entry inhibition, cell reporter; control for the full effect not named in the record; about a third of the inactives were read at about 46 µM. Potency, µM (highest dose often 37.8 µM), for the others: at the highest dose activity change, negative = inhibition, actives largely listed as inhibitors. 300,000 tested, 1.8% active; active = well fitted inhibition curve with a large enough effect; inconclusive = small, poorly fitted or top-dose-only effect, or effect the other way; inactive = flat fitted curve, though single readings scatter; tested in HEK293 cells; about a fifth of its hits are not listed in these tables; further: on the % scale 0 is the no-effect control and ±100 the full control effect; luciferase read-out
Lassa entry inh: Lassa virus entry inhibition; Potency, µM (top dose mostly 37.9 µM), for the others: top-dose activity change, negative = inhibition, hits mostly inhibitors; Lassa virus pseudotype entry inhibition, cell reporter; control for the full effect not named in the record; 300,000 tested, 1.2% active; active means well fitted inhibition curve with a large enough effect; inconclusive means small, poorly fitted or top-dose-only effect, or effect the other way; inactive means flat fitted curve, though single readings scatter; tested in HEK293 cells; further: on the % scale 0 is the no-effect control and ±100 the full control effect; nearly all actives have a fitted effect of over 50% in size; luciferase read-out
Active calls of the source: *; ? = inconclusive; · = no result given; & = joins results of further samples; [ ] = dose if it differs, or a comment. Unless noted, the call rests on the fitted dose curve; in most records, active means well fitted curve in the direction sought with a large enough effect; inconclusive means small, poorly fitted or top-dose-only effect, or another doubt; inactive means no such curve, though single readings can be large; an effect the other way counts as inactive or inconclusive. Potency means the concentration at half of the fitted maximal effect. Rows were taken by chance; about 4.7% have a hit in one of these screens.

SMILES	StopGo reporter	SARS PLP yeast	NS1 inh	Cruzain Triton	Cruzain noTriton	RE007 growth inh	Marburg entry inh	Lassa entry inh
CCN(c1ccccc1)S(=O)(=O)c1ccc(C(=O)Oc2ccc(C(C)=O)cc2)cc1	0%	0%	11%	-1.5%	-1%	2%	4%	-10%
Cc1ccnc(NC(=O)CNC(=O)c2ccc3c(c2)OCO3)c1	0%	3%	1%	·	·	10%	?	6%[46.1 µM]
CCNS(=O)(=O)c1ccc(CCC(=O)N2CCOCC2)cc1	-15%	-5%	12%	·	·	7%	·	·
CSc1nc2ccc(S(=O)(=O)N(C)C)cc2s1	19%	10%	-10%	-10%	0%	2%	1%	2%
Nc1ccccc1-c1nnc2n1CCCCC2	-5%	-6%	8%	·	·	1%	2%[46.1 µM]	-16%
Cc1ccc2[nH]c(=O)c3cc(C(=O)NCC4CCCO4)sc3c2c1 (stereo not given)	-1%	1%	·	·	·	2%	1%[46.1 µM]	-22%
CCCCSCCCNC(=S)Nc1ccccc1C	30%[activator]	-2%	·	·	·	0%	?	-22%
COCCCn1c(N)c(C(=O)Nc2ccccc2)c2nc3ccccc3nc21	24%	1%	9%	·	·	1%	?	15%[46.1 µM]
CCN(CC)CCOC(=O)c1ccc(NC(=O)COc2cc(=O)n(CC)c3ccccc23)cc1	5%	1%	-10%	5.6%	?	12%	?	-1%
CN(c1ccccc1)S(=O)(=O)c1cccc(C(=O)NCCc2ccc(O)c(O)c2)c1	?	3%	7%	·	·	5%	12%[46.1 µM]	6%
CCc1cccc(CC)c1NC(=O)c1c(C)oc2ccc(O)c(CN3CCCC3)c12	-14%	·	·	-6.0%	-23%	·	?	-22%[46.1 µM]
NC(=O)NC(=O)COC(=O)c1ccccc1OCc1ccc(F)cc1	-9%	0%	1%	·	·	-5%	·	·
COc1ccc(NC(=O)c2nc[nH]c2C(=O)N2CCN(C(=O)OC(C)(C)C)CC2)cc1	1%	3%	-2%	·	·	-9%	·	·
CCOc1ccc(-n2nc3ccc(NC(=O)c4ccc(C)cc4C)cc3n2)cc1	-21%	·	·	0.7%	15%	·	-1%[46.1 µM]	20%[46.1 µM]
O=C(NC1CCCC1)C(c1ccccc1)N(C(=O)c1ccno1)c1cccnc1 (stereo not given)	-11%	-4%	-4%	0.8%	8%	-5%	2%[46.1 µM]	-14%
COC(=O)C1=C(C)N(Cc2ccccc2)C(=NCC(C)C)N[C@H]1c1cccc(F)c1	-6%	-3%&1%	-8%	·	·	-7%	·	·
Nc1nc(CN2CCOCC2)cs1	-7%	3%	0%	-4.0%	-10%	-27%	-6%	-4%
NC(=O)C1CCN(CC(=O)Nc2ccccc2Sc2ccc(Cl)cc2)CC1	-16%	4%	-10%	-3.4%	12%	-7%	-17%	-7%
Cc1cc2nc3c(nc2cc1C)C1(C(=O)O)CCC3(C)C1(C)C (stereo not given)	12%	-6%	-16%	-0.2%	7%	15%	-8%	7%
COc1ccc(O)c(/C=N/Nc2nc3ccccc3[nH]2)c1	34%[activator]	0%	12%	·	·	8%	-19%[46.1 µM]	13%[46.1 µM]

Among those listed so far, these have an aryl thioether with sulfur outside any ring:
SMILES	StopGo reporter	SARS PLP yeast	NS1 inh	Cruzain Triton	Cruzain noTriton	RE007 growth inh	Marburg entry inh	Lassa entry inh
CSc1nc2ccc(S(=O)(=O)N(C)C)cc2s1	19%	10%	-10%	-10%	0%	2%	1%	2%
NC(=O)C1CCN(CC(=O)Nc2ccccc2Sc2ccc(Cl)cc2)CC1	-16%	4%	-10%	-3.4%	12%	-7%	-17%	-7%

More records.
SMILES	StopGo reporter	SARS PLP yeast	NS1 inh	Cruzain Triton	Cruzain noTriton	RE007 growth inh	Marburg entry inh	Lassa entry inh
CCc1ccc(C2=NN(S(C)(=O)=O)C(c3cccs3)C2)cc1 (stereo not given)	9%	-17%	-4%	-10%	-18%	-14%	?	?
CCOc1cccc(CNc2nnnn2C)c1	4%	-3%	10%	·	·	-9%	-7%	18%
O=C(COC(=O)COc1ccc2c(c1)CCC2)Nc1ccccc1C(F)(F)F	-5%	2%	·	·	·	2%	9%	-8%
COc1ccc(Cl)cc1NC(=O)Cn1cc(C(=O)c2ccc(C)cc2)c(=O)c2ccc(C)nc21	-3%	·	·	-0.8%	-13%	·	·	-2%[46.1 µM]
COc1ccc(CNC(=O)[C@@H](NC(=O)C2CCN(S(=O)(=O)c3ccc(C)cc3)CC2)C(C)C)cc1OC	0%	12%	3%	·	·	-2%	·	·
COc1ccccc1/C=C/C(=O)NC(=S)Nc1ccc(S(=O)(=O)N(C)c2ccccc2)cc1	-21%	2%	20%	2.3%	4µM*	-21%	-7%	-11%
CN(C)S(=O)(=O)c1cccc(NC(=S)Nc2ccc(Cl)cc2Cl)c1	?	16%	0%	1.3%	2%	-1%	2%	-10%
CCc1ccccc1NC(=O)C1CC(c2ccc(F)cc2)=NO1 (stereo not given)	-25%	-3%	-8%	-1.7%	-5%	12%	?	0%
CCn1c(Oc2cccc(Br)c2)nc2c1c(=O)n(C)c(=O)n2C	?	-2%	-23%	·	·	6%	·	·
CC(=O)c1cccc(NC(=O)c2cc(=O)[nH]c3ccc(S(=O)(=O)N4CCOCC4)cc23)c1	-3%	-6%	·	·	·	-4%	?	0%
CCC(C)(C)n1nnnc1CN1CCc2ccccc21	-16%	1%	10%	1.3%	-15%	3%	3%	-18%
NC(=O)C1CCN(C(=O)N2c3ccccc3Sc3ccccc32)CC1	·	-2%	-16%	4.3%	?	2%	5%	3%
CC(C)Oc1ccc(CNC(=O)C2CCN(c3nc4ccccc4n(C)c3=O)CC2)cc1	-3%	·	·	1.1%	-6%	·	-14%[46.1 µM]	28%[46.1 µM]
Cc1cc(OCC(=O)N2CCN(c3ccccn3)CC2)cc(C)c1Br	?	-9%	-37%	·	·	-29%	15%	10%
CCCC(C)c1nnc(NC(=O)C2CC(=O)N(c3ccc(OCC)cc3)C2)s1 (stereo not given)	-17%	-2%	-23%	·	·	-6%	4%[46.1 µM]	5%[46.1 µM]
O=C(CCC1CCCCC1)NC1CCCCC1	30%	1%	·	·	·	51%	-17%	-7%
Cc1ccccc1CNCCCSc1nnnn1-c1ccccc1	-9%	·	·	-1.1%	2%	·	9%[46.1 µM]	-2%[46.1 µM]
CCN1CNC(=S)N(c2cc(C)ccc2C)C1	2%	3%	19%	8.4%	-6%	-9%	6%	9%
CCOC(=O)C(Cc1c[nH]c2ccc([N+](=O)[O-])cc12)(NC(C)=O)C(=O)OCC	-13%	·	·	·	·	4%	-31%[46.1 µM]	-1%[46.1 µM]
COc1ccc(NS(=O)(=O)c2ccc(-c3cnc(C4CC4)o3)cc2)cc1Cl	-4%	·	·	-9.3%	-1%	·	·	?

Complete entries from above. Screens in order: StopGo reporter, SARS PLP yeast, NS1 inh, Cruzain Triton, Cruzain noTriton, RE007 growth inh, Marburg entry inh, Lassa entry inh
Listed for Cc1ccnc(NC(=O)CNC(=O)c2ccc3c(c2)OCO3)c1 : 0%, 3%, 1%, ·, ·, 10%, ?, 6%[46.1 µM]
Listed for Nc1ccccc1-c1nnc2n1CCCCC2 : -5%, -6%, 8%, ·, ·, 1%, 2%[46.1 µM], -16%

More results.
SMILES	StopGo reporter	SARS PLP yeast	NS1 inh	Cruzain Triton	Cruzain noTriton	RE007 growth inh	Marburg entry inh	Lassa entry inh
CCOC(=O)c1c(NC(=O)CSc2nc3c(c(=O)n(C)c(=O)n3C)n2CC)sc(C)c1C	8%	2%	4%	2.1%	-10%	18%	-3%&13%	5%
CCOc1ccccc1/C=C/C(=O)N1CCN(C(=O)c2ccco2)CC1	0%	1%	·	·	·	-10%	?	5%
CCCOc1nc(SCCC)nc2c1cnn2-c1ccccc1	?	-1%	-1%	·	·	-2%	5%[46.1 µM]	-19%[46.1 µM]
NC(N)=N/N=C/c1cccc(Cl)c1Cl	0%	0%	4%	·	·	6%	?	?
Cc1cccc(C)c1OCc1nnc(SCC(=O)Nc2ccccc2F)o1	-16%	-7%	-19%	-4.7%	-9%	-5%	3%	0%
Cc1cc(C(=O)N2CCC3(CC2)OCCO3)cs1	9%	6%	0%	2.0%	-10%	1%	2%	-1%
COCCCn1c(SCC(=O)N2CCCCC2C)nnc1-c1ccco1 (stereo not given)	17%	-6%	2%	4.0%	11%	7%	12%	15%
COc1ccc(C(=O)N/N=C/c2ccccn2)cc1OC	-5%	13%	·	·	·	-5%	-20%	17%
CCOC(=O)N1CCN(CCC(=O)c2ccc(Br)cc2)CC1	-11%	-12%	-7%	·	·	35µM*	-5%	?
O=C(C1CCCCCC1)N1CC[C@@H](N2CCC(O)CC2)[C@H](O)C1	-4%	·	15%	·	·	-3%	-8%	-3%
COc1ccc(C)cc1S(=O)(=O)N(C)CC(=O)NCc1ccncc1	9%	0%	2%	·	·	1%	14%[46.1 µM]	·
CC(C)c1nnc(NC(=O)C2CCCN2C(=O)Nc2ccc(F)cc2)s1 (stereo not given)	3%	4%	-4%	·	·	-14%	4%[46.1 µM]	9%

Random excerpt: five compounds from above
SMILES	StopGo reporter	SARS PLP yeast	NS1 inh	Cruzain Triton	Cruzain noTriton	RE007 growth inh	Marburg entry inh	Lassa entry inh
Cc1cccc(C)c1OCc1nnc(SCC(=O)Nc2ccccc2F)o1	-16%	-7%	-19%	-4.7%	-9%	-5%	3%	0%
COc1ccc(C)cc1S(=O)(=O)N(C)CC(=O)NCc1ccncc1	9%	0%	2%	·	·	1%	14%[46.1 µM]	·
CC(C)c1nnc(NC(=O)C2CCCN2C(=O)Nc2ccc(F)cc2)s1 (stereo not given)	3%	4%	-4%	·	·	-14%	4%[46.1 µM]	9%
CCOC(=O)c1c(NC(=O)CSc2nc3c(c(=O)n(C)c(=O)n3C)n2CC)sc(C)c1C	8%	2%	4%	2.1%	-10%	18%	-3%&13%	5%
CCOc1ccccc1/C=C/C(=O)N1CCN(C(=O)c2ccco2)CC1	0%	1%	·	·	·	-10%	?	5%
